From PubChem
Beta2AR agonist: activates human beta-2 adrenergic receptor causing internalization; P07550; Am2.2-beta2AR cells, FAP receptor internalization, flow cytometry; reference of the scale not given here; response, % (test concentration not listed); 340,000 tested, 0.43% active; AID 504454;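 active = response above a set limit, near 3 SD of response in nonfluorescent compounds, cut at about 42% in these data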;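 note: stock transfer was 100 nL into about 11 µL; a reference agonist was the positive control; negative values mostly stem from fluorescent compounds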
Target sequence (P07550 whole entry, looked up): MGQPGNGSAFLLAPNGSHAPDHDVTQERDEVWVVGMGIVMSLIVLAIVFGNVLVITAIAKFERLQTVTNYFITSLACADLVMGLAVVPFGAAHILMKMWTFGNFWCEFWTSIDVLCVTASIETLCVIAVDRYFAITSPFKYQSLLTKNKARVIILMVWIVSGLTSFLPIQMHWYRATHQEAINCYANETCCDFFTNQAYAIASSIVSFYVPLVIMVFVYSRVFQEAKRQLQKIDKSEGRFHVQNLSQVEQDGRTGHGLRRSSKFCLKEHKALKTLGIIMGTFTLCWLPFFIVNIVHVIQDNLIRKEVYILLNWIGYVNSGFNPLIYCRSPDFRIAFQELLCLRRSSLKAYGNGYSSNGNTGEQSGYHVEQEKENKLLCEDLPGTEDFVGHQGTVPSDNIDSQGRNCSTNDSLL
RanGTP-Impb inh: inhibitors of RanGTP-importin-beta interaction, primary screen, biochemical, FRET, CFP-Ran, YFP-importin-beta, homogeneous. cell-free CFP-Ran/YFP-importin-beta FRET ratio. inhibition, % (no concentration beside the values). 300,000 tested, 1.1% active. AID 2216;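 active = most replicates above 15%; inconclusive = exactly half above 15%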;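 note: 0% = DMSO wells and 100% = Ran loaded with GDP instead of GTP; wells of about 40 µL received 100 nL stock; the first replicate is given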
Bfl-1 A1 inh: inhibitors of the anti-apoptotic protein A1, read as caspase activation. AID 2462. MEF A1-2A-BIM cells, Caspase-Glo 3/7 luminescence, 3 h; percent of clofoctol response, vehicle zero. 330,000 tested, 0.066% active. caspase activation, % (test concentration not listed);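 active = over half of replicate activation scores above 10%, or exactly half above 10 with the replicate mean above 10; inconclusive = replicate mean below 10 yet half the replicates above 10; inactive = over half of replicates below 10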;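 note: wells of about 30 µL received 50 nL stock; many hits fall short of the cut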
Calb FLC: C. albicans growth modulation with fluconazole | C. albicans CaCi-2 (fluconazole-resistant clinical isolate) + fluconazole, Alamar Blue growth, 48 h | growth inhibition, % (no concentration beside the values) | 300,000 tested, 0.57% active;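 active = most replicates above 75%; inconclusive = exactly half above 75%; inactive = most below 75%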;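 note: all wells also contain fluconazole at 8 µg/ml as a sub-toxic cotreatment; 0% = median of DMSO wells and 100% = median of geldanamycin control wells; wells of about 8 µL received 7.5 nL stock; the first replicate is given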
T cruzi inh: T. cruzi replication inhibition. T. cruzi beta-gal in NIH3T3, luminescence, 90 h. inhibition, % (test concentration not listed). 300,000 tested, 1.4% active. AID 1885;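 active = mean inhibition across valid replicates above about 55%, limit read from the data; inconclusive = mean below that limit but half or more replicates reach it; inactive = mean below it, under half of replicates reach it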;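 note: signal also drops with host cell toxicity which is not excluded here; 0% = plate median of DMSO wells and 100% = zero luminescence signal; higher percent means less beta-gal luminescence so fewer parasites; stock transfer was 50 nL into about 50 µL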
Beta cell apopt: blocks beta cell apoptosis | INS-1E cytokine-induced death, ATP luminescence, 48 h; percent of positive-control rescue, neutral wells zero | protection from apoptosis, % (no concentration beside the values) | 300,000 tested, 0.8% active | AID 435005;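 active = all replicates at 75% or more, or half of them and the mean; inconclusive = half reach 75% but not the mean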;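 note: 0% = cytokine-treated negative control wells and 100% = positive control rescue; higher means more ATP so stronger rescue from cytokine killing; wells of about 40 µL received 100 nL stock; the first replicate is given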
LANA-H2A inh: blocks KSHV LANA binding to histone H2A/H2B; Q9QR71; cell-free LANA-H2A/H2B peptide, fluorescence polarization; inhibition, % (concentration not given with the values); 320,000 tested, 0.6% active; in the data active = inhibition mostly above about 10%, no sharp cut-off; inactive = mostly below about 6.7%;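 note: stock transfer was 7.5 nL into about 10 µL; 0% = median of vehicle wells and 100% = median of positive control wells; one replicate is shown; the record names a cut of 25% in any replicate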
UCH37 DUB inh: inhibitors of human deubiquitinating enzyme UCH37. inhibition, % (no concentration beside the values). Q9Y5K5. purified proteasome/UCH37, Ub-AMC cleavage fluorescence. AID 588478. 330,000 tested, 0.33% active;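 active = mean of two replicates above 20%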;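 note: 0% = compound-free wells with enzyme and 100% = wells lacking proteasome; stock transfer was 100 nL into about 20 µL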
Target sequence (Q9Y5K5 whole entry, looked up): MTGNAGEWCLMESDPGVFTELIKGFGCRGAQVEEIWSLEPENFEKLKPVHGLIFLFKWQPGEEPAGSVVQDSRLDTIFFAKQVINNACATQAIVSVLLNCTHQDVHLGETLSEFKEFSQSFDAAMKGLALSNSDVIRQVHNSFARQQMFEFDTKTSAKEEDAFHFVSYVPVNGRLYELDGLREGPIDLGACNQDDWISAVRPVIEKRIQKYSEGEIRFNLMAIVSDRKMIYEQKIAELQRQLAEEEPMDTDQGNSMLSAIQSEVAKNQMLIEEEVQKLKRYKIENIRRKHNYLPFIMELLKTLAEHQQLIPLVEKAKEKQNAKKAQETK
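Signal – fluorescence, ex 355 nm, em 460 nm · System – Proteasome-bound UCH37 · Input – 0.15 nM proteasome as dispensed · Timing – 30 min preincubation with enzyme, 25 min cleavage at room temperature · Read-out basis – percent inhibition of cleavage signal versus uninhibited and no-proteasome wells · Medium – Tris-HCl pH 7.4 with ATP-MgCl2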
Numbers without * were called inactive; i = inactive; ? = inconclusive; . = not tested or not shown.

SMILES | Beta2AR agonist | RanGTP-Impb inh | Bfl-1 A1 inh | Calb FLC | T cruzi inh | Beta cell apopt | LANA-H2A inh | UCH37 DUB inh
COc1ccccc1NC(=O)c1ccccc1NS(=O)(=O)N1CCCC1 | -7 | ? | -0.3 | 6 | -4 | 1 | 3.5 | 3.8
CC1CC(CN)CC(CO)C1 (stereo not given) | 9 | 5.6 | 0.1 | -11 | -16 | -8 | -3.4 | 1.4
Nc1nonc1-n1nnc(C(=O)N/N=C/c2ccc3c(c2)OCO3)c1CSc1ccccc1 | 3 | 3.2 | 1.4 | -9 | 8 | -2 | -4.0 | .
O=C(NNC(=O)c1cnccn1)c1ccc(Cl)cc1 | 11 | -1.0 | -0.5 | -13 | 7 | -2 | 0.0 | 3.3
O=C(C1CCCN(S(=O)(=O)c2cccc3nonc23)C1)N1CCC(Cc2ccccc2)CC1 (stereo not given) | -7 | 3.2 | 0.2 | 0 | 9 | 10 | 3.1 | -0.8
Cc1sc2ncnc(SC(C)C(=O)N3c4ccccc4Sc4ccccc43)c2c1C (stereo not given) | 2 | 3.3 | -0.3 | 0 | 19 | -2 | -2.2 | 3.4
COC(=O)c1ccc(CN2CCC(CO)(Cc3ccc(OC)cc3)CC2)cc1 | 9 | -8.4 | -0.4 | -9 | 25 | -1 | 5.5 | 3.6
O=C(Nc1c(C(=O)N2CCC(N3CCCCC3)CC2)oc2ccccc12)c1c(F)cccc1F | -5 | -0.4 | 1.2 | -7 | 6 | . | 2.8 | 3.8
Cc1ccc(CN(C)C(=O)CCc2c[nH]c3ccccc23)o1 | 5 | 0.4 | 0.7 | 9 | -5 | -7 | -2.1 | -0.2
O=C(Nc1ccc(Cl)cc1)c1csc(-c2ccccc2)n1 | 18 | 0.7 | 0.0 | 0 | -15 | 0 | 1.2 | 0.4
CCOC(=O)c1nn(-c2ccccc2)c(=O)cc1SC1CCCCC1 | 12 | -0.9 | -0.5 | -16 | 17 | -6 | -4.9 | 0.9
N#C/C(=C/c1cccn1-c1cccc(C(=O)O)c1)c1ccc(F)cc1 | 4 | -1.7 | . | 33 | 0 | . | . | 11
O=C(OC1CCCCC1)c1ccc(NC(=O)C2CCCCC2)cc1 | 3 | 1.3 | 1.2 | 23 | 9 | 22 | 7.2 | 3.7
COCCn1c(SCC(=O)Nc2ccc(OC)cc2)nc2c(oc3ccccc32)c1=O | . | 6.6 | 0.2 | -24 | 8 | 0 | 9.8 | 4.0
Cc1ccc(C(=O)Nc2ccccc2N2CCCCC2)cc1[N+](=O)[O-] | -6 | -1.8 | -0.5 | -9 | 17 | -1 | -1.4 | 4.8
COc1ccc(OC)c(S(=O)(=O)NCc2cn3c(C)csc3n2)c1 | -1 | 7.7 | -0.4 | -5 | -11 | 0 | -0.9 | 1.4
CCc1nc(SCC(=O)NCc2ccco2)c2c(=O)n(C)c(=O)n(C)c2n1 | 14 | ? | -0.6 | 2 | -6 | -3 | -0.5 | -0.6
COc1ccccc1NS(=O)(=O)c1ccc(C)c(C(=O)N2CCN(c3ccc(O)cc3)CC2)c1 | -3 | . | 3.6 | . | . | 7 | -2.6 | .
O=C(NCc1ccccc1Cl)c1cc([N+](=O)[O-])ccc1Cl | -1 | 0.5 | 1.4 | -3 | -9 | 3 | -1.9 | .
CCN(CC(=O)Nc1c(F)cccc1F)C(=O)C1CCN(c2ncnc3sc(C)c(C)c23)CC1 | 15 | 0.7 | -0.6 | 0 | -2 | 0 | 2.5 | 1.4
CCc1ccc(C(=O)N2CCN(S(=O)(=O)c3sc(C(=O)O)c(C)c3C(=O)O)CC2)cc1 | -5 | . | 0.7 | . | . | -6 | 5.9 | 5.6
CCC(C)n1c(/C=C/c2ccccc2)nc2ccccc21 (stereo not given) | 5 | -6.2 | 0.2 | 9 | 20 | 9 | -3.6 | -427
O=C(CN1c2cccc3cccc(c23)S1(=O)=O)Nc1cccc(S(=O)(=O)N2CCOCC2)c1 | 1 | -3.0 | 1.1 | 12 | 21 | 6 | 0.5 | -3.9
CC(C)[C@H](NC(=O)c1ccco1)C(=O)OCC(=O)NC12CC3CC(CC(C3)C1)C2 | 5 | -0.5 | -1.2 | -10 | -3 | -2 | . | -0.4
CN(C(=O)c1cccc(C(=O)N(C)c2ccccc2)c1)c1ccccc1 | 5 | -1.7 | -0.5 | 4 | 5 | . | -2.2 | 0.7
COc1ccc(C(=O)NCC(=O)OCC(=O)Nc2ccc(C)c(S(=O)(=O)N(C)C)c2)cc1OC | -6 | 2.7 | 0.7 | -20 | -15 | -2 | -6.2 | -1.0
O=C(Nc1nc2ccsc2c(=O)s1)c1ccc(F)cc1Cl | -5 | 4.8 | -7.6 | 4 | 1 | 6 | 0.0 | -6.7
CCn1c2ccccc2c(=O)c2ccccc21 | -8 | 145* | 0.1 | 34 | 14 | -2 | 0.5 | i
Cc1ccc2[nH]c3c(NCCN4CCOCC4)ncnc3c2c1 | 1 | 0.7 | . | 1 | 7 | . | . | -10
CN1CCCC(n2nc(Cc3ccc(Cl)cc3)c3ccccc3c2=O)CC1 (stereo not given) | 18 | -0.4 | 0.1 | . | 41 | 5 | 4.2 | 4.1
COC(=O)c1ccccc1NC(=O)N1CCc2ccc(NC(=O)c3ccccn3)cc2C1 | 18 | 2.5 | 0.4 | 14 | 37 | 18 | 2.9 | -4.3
Cc1ccc(C(=O)CSc2nnc(-c3ccco3)n2CC2CCCO2)cc1 (stereo not given) | -21 | 0.2 | -0.5 | -4 | 18 | -9 | 3.9 | 1.9
CN1CCN(/N=C/c2nc(-c3cccc([N+](=O)[O-])c3)n3ccccc23)CC1 | -5 | 5.3 | -0.8 | 6 | 1 | 5 | 4.7 | .
Cn1nc(-c2ccc(OCC(=O)Nc3cccnc3)cc2)c2ccccc2c1=O | -1 | ? | -0.5 | 0 | -4 | -2 | 4.8 | 3.8
COC(=O)c1ccc(OC(=O)c2ccccc2F)cc1 | . | 0.8 | 0.2 | -6 | -18 | 2 | -3.9 | 1.6
O=C(Nc1ccc2ccccc2c1)c1ccc2[nH]c(=O)c(=O)[nH]c2c1 | -17 | 1.0 | 0.4 | 6 | 7 | . | -1.8 | -5.8
COc1ccnc(N=CNOCc2ccc(F)cc2Cl)c1C#N | 4 | 12 | 0.6 | -5 | 11 | -18 | -0.9 | 3.4
O=C(CCC(=O)N1CCOCC1)NCCc1ccc(F)cc1 | -8 | . | -0.5 | . | . | 4 | 4.0 | 2.4
Cc1cc(C)cc(OCC(=O)Nc2ccccc2C(=O)N2CCOCC2)c1 | -4 | -0.2 | 2.2 | 15 | -1 | -2 | -1.6 | .
CCOC(=O)C1CCN(Cc2nc3ccccc3c(=O)n2-c2ccc(OCC)cc2)CC1 | -15 | 3.0 | . | -18 | 37 | . | . | 2.0
COc1ccc(NC(=O)Cn2nc(C(=O)O)c3ccccc3c2=O)cc1Cl | -1 | 3.3 | 1.7 | -4 | -8 | -6 | -1.7 | 2.6
O=[N+]([O-])CC(c1ccccc1)c1c[nH]c2ccccc12 (stereo not given) | 2 | 0.6 | -0.2 | 0 | 0 | 2 | -1.2 | 3.6
CC(NC(=O)OC(C)(C)C)C(=O)NC(CCC(=O)OCc1ccccc1)C(N)=O (stereo not given) | -1 | 2.5 | -0.3 | 3 | 1 | 0 | 5.6 | 1.8
CC(=O)Nc1ccc(S(=O)(=O)NCCC(=O)NNC(=O)c2ccccc2O)cc1 | 3 | . | 0.3 | . | . | -6 | 5.1 | -17
COc1cccc(-c2noc(C3CCCN(C(=O)Cc4ccccc4)C3)n2)c1 (stereo not given) | -4 | -0.4 | 1.4 | 6 | . | -1 | 11* | 0.8
CN1CCN(C(=O)/C(=C/c2ccc([N+](=O)[O-])cc2)NC(=O)c2ccccc2)CC1 | -2 | 0.3 | 0.0 | 8 | -8 | -1 | 2.3 | 7.7
O=C(CN1C(=O)C(=O)N(Cc2ccccc2)C1=O)Nc1cc(Cl)cc(Cl)c1 | 0 | 0.0 | -0.3 | -1 | 2 | -3 | 3.7 | 2.7
Cn1cccc1/C=N/NC(=O)c1ccncc1 | 19 | 0.1 | 0.1 | -6 | -1 | . | -1.6 | .
N#Cc1ccccc1OCCCN1CCC(Cc2ccccc2)CC1 | 3 | -2.2 | -0.3 | 4 | 51 | 1 | 2.5 | 3.0
O=C(COC(=O)C1CCCCC1)Nc1ccc(S(=O)(=O)N2CCOCC2)cc1 | -1 | -3.1 | 0.0 | -10 | -5 | 0 | 0.0 | 0.3
O=C(NCC1COc2ccccc2O1)c1ccc(NC(=O)C2CCCO2)cc1 (stereo not given) | 6 | . | -0.5 | . | . | 3 | 1.2 | 5.1
O=C1NCCN(Cc2ccc(-c3ccccc3)cc2)C1CC(=O)N1CCN(CCO)CC1 (stereo not given) | -1 | -1.7 | 0.1 | -3 | -13 | -1 | -3.3 | -0.3
CCN(CC)S(=O)(=O)c1cccc(-c2nnc(SC(C)C(=O)NCCC3=CCCCC3)o2)c1 (stereo not given) | 0 | -3.6 | -0.4 | 6 | 15 | 4 | -2.1 | 0.6
CC1CCCN(c2ccc(C(=O)Nc3ccc4c(c3)OCO4)cc2[N+](=O)[O-])C1 (stereo not given) | 10 | 2.5 | -5.9 | -9 | 25 | 6 | -0.5 | 5.8
COCCCNC(=O)CN(c1cccc(Cl)c1)S(C)(=O)=O | 6 | 0.1 | 0.6 | -10 | -3 | . | -0.3 | 2.2
CCC(C)(C)C1CCc2[nH]nc(C(=O)NCc3ccc(OC)cc3)c2C1 (stereo not given) | -14 | . | -0.9 | . | . | -1 | -5.4 | -1.8
CC(C)=C1C2CCC1C1C(=O)N(c3nc(-c4ccc(C(C)C)cc4)c(C)s3)C(=O)C21 (stereo not given) | 10 | 1.4 | -0.1 | -3 | 17 | 7 | 9.0 | -0.9
COc1ccc(C(=O)NCCN2CCOCC2)cc1S(=O)(=O)Nc1ccc(C)cc1 | 9 | . | -0.1 | . | . | -1 | i | 1.1
Cn1c(CSCc2ccc(F)cc2)nnc1SCC(=O)N1CCN(c2ccccc2)CC1 | -1 | -2.9 | 0.2 | 1 | -2 | 3 | -3.6 | -0.9
CCOC(=O)C1(Cc2ccccc2Cl)CCN(C(=O)CCn2ccnc2C)CC1 | 4 | 2.6 | 0.1 | 13 | -1 | -1 | 7.5 | -0.9
Additional results follow.
SMILES | Beta2AR agonist | RanGTP-Impb inh | Bfl-1 A1 inh | Calb FLC | T cruzi inh | Beta cell apopt | LANA-H2A inh | UCH37 DUB inh
O=c1c2c(-c3ccc([N+](=O)[O-])cc3)csc2nc2n1CCCCC2 | -2 | 0.2 | -0.5 | 4 | 20 | 0 | -1.6 | 4.0
Cc1cc(=O)[nH]c(SCc2cccc3cccnc23)n1 | 16 | -3.5 | -0.3 | 14 | . | -6 | -1.7 | 0.6
C=C(C)CN1C(=O)C(=O)N(CC(=C)C)C1=O | -2 | 0.0 | 0.5 | -12 | -13 | -9 | -8.3 | 2.0
CSC1=NNC(c2ccc(C(C)(C)C)cc2)=NN1 | -2 | -2.1 | 0.1 | 4 | 9 | -2 | 5.6 | 2.4
